CBX7 inh: CBX7 chromodomain binding inhibitors, primary screen, biochemical, AlphaScreen; Chromobox protein homolog 7 (Homo sapiens), O95931; AlphaScreen His6-CBX7 / biotin-H3K27me3 peptide binding; active compounds read low; normalised signal (fraction of DMSO) (no concentration beside the values); 66,000 tested, 1.1% active; AID 1224903, 2016; in the data active = normalised signal below about 0.5;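 note: 100 nL library stock added to about 20 µL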
Target sequence (O95931 whole entry, looked up): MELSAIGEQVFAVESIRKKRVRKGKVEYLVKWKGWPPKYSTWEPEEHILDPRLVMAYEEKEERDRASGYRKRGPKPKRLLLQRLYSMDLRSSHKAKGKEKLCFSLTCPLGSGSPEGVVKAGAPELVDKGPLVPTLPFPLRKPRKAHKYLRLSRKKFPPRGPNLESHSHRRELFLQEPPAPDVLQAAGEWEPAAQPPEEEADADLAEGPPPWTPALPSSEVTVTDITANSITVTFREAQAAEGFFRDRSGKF
CBX7 inh z-score: further read-out of CBX7 inh, marked with its call; z-score; measured here: z-score of CBX7 signal; some inactives read as strong as hits; reference of the scale not given here;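 same signal on another scale; lower means less binding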
The depositor's hits bear a star.

Start of the listing, in advance (3 entries):
Cc1ccc(NC(=O)C2CCN(S(=O)(=O)c3c(C)noc3/C=C/c3cccs3)CC2)c(C)c1 was read as CBX7 inh 0.97 and CBX7 inh z-score -1.4.
Screening O=C(NCc1cccc(Cl)c1)c1cc2ccccn2n1 returned CBX7 inh 0.97 and CBX7 inh z-score -0.53.
`CC(NC(=O)c1cc(-c2ccc(Br)cc2)on1)c1ccccc1` (stereo not drawn) gave CBX7 inh 1 and CBX7 inh z-score 0.022.

This part in full, from the first entry:
Cc1ccc(NC(=O)C2CCN(S(=O)(=O)c3c(C)noc3/C=C/c3cccs3)CC2)c(C)c1 was read as CBX7 inh 0.97 and CBX7 inh z-score -1.4.
Screening O=C(NCc1cccc(Cl)c1)c1cc2ccccn2n1 returned CBX7 inh 0.97 and CBX7 inh z-score -0.53.
`CC(NC(=O)c1cc(-c2ccc(Br)cc2)on1)c1ccccc1` (stereo not drawn) gave CBX7 inh 1 and CBX7 inh z-score 0.022.
COc1ccccc1NC(=O)Nc1nnc(COc2ccccc2F)s1 was read as CBX7 inh 1.1 and CBX7 inh z-score 0.4.
Screening CCCc1nc(-c2ccc(-c3ccc(F)cc3)cc2)no1 returned CBX7 inh 1.2 and CBX7 inh z-score 2.6.
COc1ccc(CCNC(=O)c2noc3c2CCCCC3)cc1OC was read as CBX7 inh 1.1 and CBX7 inh z-score 0.27.
CC(C)c1ccc(NC(=O)C2CCC(CNS(=O)(=O)c3cccc4cccnc34)CC2)cc1 (stereo not drawn) was read as CBX7 inh 1 and CBX7 inh z-score 1.6.
Cc1cc(Cl)cc(NC(=O)c2cnn(-c3ccc(F)cc3)c2C2CCNCC2)c1 was read as CBX7 inh 0.9 and CBX7 inh z-score -1.9.
CCC1CCCCN1S(=O)(=O)c1ccc(C(=O)Nc2nnc(-c3ccccc3Cl)o2)cc1 (stereo not drawn) was read as CBX7 inh 0.055* and CBX7 inh z-score -4.2*.
`Cc1ccc(NC(=O)CSc2nnc(Cc3cc(=O)[nH]c(=O)[nH]3)n2-c2cc(C)ccc2C)c(C)c1` gave CBX7 inh 0.98 and CBX7 inh z-score -0.049.
`Cc1onc(-c2ccccc2Cl)c1C(=O)NC(C)CCCC(C)C` (stereo not drawn) gave CBX7 inh 1.1 and CBX7 inh z-score 1.3.
Screening Cc1ccc2nc3nc(C)cc(C)c3c(N)c2c1 returned CBX7 inh 1.1 and CBX7 inh z-score 2.1.
CNC(=O)c1ccccc1NC(=O)c1ccc(C)c(S(=O)(=O)N2CCOCC2)c1 was read as CBX7 inh 1.1 and CBX7 inh z-score 1.2.
For Cc1ccc(NC(=O)c2ccc(Nc3nc(-c4ccccc4)c4cc(C)ccc4n3)cc2)c(C)c1 the results were CBX7 inh 1 and CBX7 inh z-score 0.44.
`CC(C)(C)C(=O)Nc1ccc(C(=O)Nc2nccs2)cc1` gave CBX7 inh 0.92 and CBX7 inh z-score -0.58.
Screening COc1ccc(CCN2CC(C(=O)NC3CCCC3)CC2=O)cc1OC (stereo not drawn) returned CBX7 inh 1 and CBX7 inh z-score 1.
For Clc1cccc(Nc2nc(-c3cccc4ccccc34)cs2)c1 the results were CBX7 inh 0.68 and CBX7 inh z-score -5.
O=C(Nc1ccc(Oc2ccccc2)cc1)c1cc(-c2cccs2)nc2ccccc12 was read as CBX7 inh 0.98 and CBX7 inh z-score -0.11.
O=C(CN1N=C(c2ccc(Cl)cc2)CCC1=O)NCC1CCCO1 (stereo not drawn) was read as CBX7 inh 1.1 and CBX7 inh z-score 1.2.
For Cc1cc(C)cc(NC(=O)CCc2c(C)nc3ncnn3c2C)c1 the results were CBX7 inh 0.92 and CBX7 inh z-score -0.92.

Continued, overlapping the part above by 4 compounds.
For Clc1cccc(Nc2nc(-c3cccc4ccccc34)cs2)c1 the results were CBX7 inh 0.68 and CBX7 inh z-score -5.
O=C(Nc1ccc(Oc2ccccc2)cc1)c1cc(-c2cccs2)nc2ccccc12 was read as CBX7 inh 0.98 and CBX7 inh z-score -0.11.
O=C(CN1N=C(c2ccc(Cl)cc2)CCC1=O)NCC1CCCO1 (stereo not drawn) was read as CBX7 inh 1.1 and CBX7 inh z-score 1.2.
For Cc1cc(C)cc(NC(=O)CCc2c(C)nc3ncnn3c2C)c1 the results were CBX7 inh 0.92 and CBX7 inh z-score -0.92.
CCCCSCCCNC(=O)CSCc1nc(-c2ccc(CC)cc2)oc1C was read as CBX7 inh 0.87 and CBX7 inh z-score -2.4.
`Cc1ccn2c(Nc3ccc4c(c3)OCCO4)c(-c3cccc(Br)c3)nc2c1` gave CBX7 inh 0.63 and CBX7 inh z-score -3.
For Cc1cccc(-n2c(Cc3cc(=O)[nH]c(=O)[nH]3)nnc2SCC(=O)NCCc2ccccc2)c1 the results were CBX7 inh 1 and CBX7 inh z-score 0.2.
Cc1cc(Nc2cccc(Cl)c2)nc(NCc2ccccc2)n1 was read as CBX7 inh 1.2 and CBX7 inh z-score 0.8.
COc1cc2c(C(=O)N(C)c3cc(Cl)ccc3OC)cn(CC(C)C)c(=O)c2cc1OC was read as CBX7 inh 1 and CBX7 inh z-score 0.96.
O=C(Cn1c(SCc2ccccc2F)nc2ccncc21)Nc1cccc(F)c1 was read as CBX7 inh 1 and CBX7 inh z-score 0.00064.
For O=C(Cn1ncc2c1-c1ccccc1OC2)NCc1cccs1 the results were CBX7 inh 0.95 and CBX7 inh z-score -1.5.
Cc1ccc(S(=O)(=O)Nc2ccccc2C(=O)Nc2nc3c(s2)CC(C)CC3)cc1 (stereo not drawn) was read as CBX7 inh 0.76 and CBX7 inh z-score -4.
`CC(=O)N1c2ccc(S(=O)(=O)NCCC(C)C)cc2CC1C` (stereo not drawn) gave CBX7 inh 1 and CBX7 inh z-score 0.14.
Screening CC(C)NC(=O)c1cnc(N2CCN(c3ccccn3)CC2)c2ccccc12 returned CBX7 inh 1 and CBX7 inh z-score -0.057.
`Cc1ccn2c(NC(=O)COc3ccc(Cl)cc3Cl)c(-c3ccccc3)nc2c1` gave CBX7 inh 1 and CBX7 inh z-score 0.065.
`Cc1ccc(CCN2CC(C(=O)NCCN(C)C)CC2=O)cc1` (stereo not drawn) gave CBX7 inh 0.98 and CBX7 inh z-score -0.48.
Cn1ccnc1SCC(=O)Nc1ccc(F)c(Cl)c1 was read as CBX7 inh 1 and CBX7 inh z-score -0.0017.
For CCOc1ccc(-n2nc(C(=O)Nc3ccc(F)c(Cl)c3)c3ccccc3c2=O)cc1 the results were CBX7 inh 1 and CBX7 inh z-score 0.76.
CC1(C)CC(CCNS(=O)(=O)c2ccccc2)(c2ccccc2)CCO1 (stereo not drawn) was read as CBX7 inh 1.3 and CBX7 inh z-score 2.3.
`CCC(=O)N1CCc2cc(S(=O)(=O)N3CCN(c4cc(Cl)ccc4C)CC3)ccc21` gave CBX7 inh 1.3 and CBX7 inh z-score 1.1.
`COc1cc2c(C(=O)Nc3ccc(F)cc3F)cn(CC(C)C)c(=O)c2cc1OC` gave CBX7 inh 1 and CBX7 inh z-score 1.1.
Screening CC(NC(=O)C1CCC(=O)N1C1CCCC1)c1ccccc1 (stereo not drawn) returned CBX7 inh 1 and CBX7 inh z-score 0.047.
For COc1cccc(C(=O)NC(C)C(c2cccs2)N2CCN(c3ccccc3OC)CC2)c1 (stereo not drawn) the results were CBX7 inh 0.91 and CBX7 inh z-score -2.1.
Cc1cn2c3ccccc3nc2n1CCO was read as CBX7 inh 1 and CBX7 inh z-score 0.44.

Not a retest: an excerpt of the list.
`COc1cc2c(C(=O)Nc3ccc(F)cc3F)cn(CC(C)C)c(=O)c2cc1OC` gave CBX7 inh 1 and CBX7 inh z-score 1.1.
Screening CC(NC(=O)C1CCC(=O)N1C1CCCC1)c1ccccc1 (stereo not drawn) returned CBX7 inh 1 and CBX7 inh z-score 0.047.
For COc1cccc(C(=O)NC(C)C(c2cccs2)N2CCN(c3ccccc3OC)CC2)c1 (stereo not drawn) the results were CBX7 inh 0.91 and CBX7 inh z-score -2.1.
Cc1cn2c3ccccc3nc2n1CCO was read as CBX7 inh 1 and CBX7 inh z-score 0.44.

(next part)
`Cc1ccccc1-c1nc2cc(NC(=O)c3ccc4c(c3)OCCO4)ccc2o1` gave CBX7 inh 1 and CBX7 inh z-score 0.073.
For O=C(CC(C(=O)N1CCc2ccccc21)n1ccnc1)NCC1CCCO1 (stereo not drawn) the results were CBX7 inh 1.6 and CBX7 inh z-score 1.1.
Screening NC(=O)C1CC(=O)N(c2ccc(O)cc2)C1 (stereo not drawn) returned CBX7 inh 0.91 and CBX7 inh z-score -1.4.
Screening CCCNC(=O)c1cc2sc(Cl)cc2n1CC returned CBX7 inh 1 and CBX7 inh z-score 0.42.
Screening CCC1Sc2ccccc2N(CC(=O)NCCC2=CCCCC2)C1=O (stereo not drawn) returned CBX7 inh 1 and CBX7 inh z-score 0.57.
Cc1ccn2c(NC3CCCCC3)c(-c3cccs3)nc2c1 was read as CBX7 inh 0.82 and CBX7 inh z-score -1.5.
O=C(C(Cc1ccccc1)NS(=O)(=O)c1cccc2cccnc12)N1CCc2ccccc21 (stereo not drawn) was read as CBX7 inh 0.83 and CBX7 inh z-score -1.4.
CCOC(=O)c1c(C2COc3ccccc3O2)csc1NC(=O)c1ccc(OC)cc1 (stereo not drawn) was read as CBX7 inh 1 and CBX7 inh z-score 1.6.
O=C1Nc2cc(C(=O)N3CCN(c4ccc(Cl)cc4)CC3)ccc2Sc2ccccc21 was read as CBX7 inh 0.8 and CBX7 inh z-score -5.5.
For O=C1CC(N2CCN(Cc3ccc4c(c3)OCO4)CC2)C(=O)N1c1ccc(Br)cc1 (stereo not drawn) the results were CBX7 inh 1.1 and CBX7 inh z-score 2.8.
COc1ccc(-c2noc(COc3ccc(Cl)c(C)c3)n2)cc1OC was read as CBX7 inh 0.96 and CBX7 inh z-score -0.25.
Cc1cc(N2CCN(S(=O)(=O)c3ccc(Cl)cc3)CC2)c2ccccc2n1 was read as CBX7 inh 0.76 and CBX7 inh z-score -0.28.
Cc1cc(NC(=O)c2cnc(Nc3ccc(C)c(Cl)c3)c3ccccc23)no1 was read as CBX7 inh 1.1 and CBX7 inh z-score 2.3.
CCCN1Cc2cccc(C(=O)Nc3ccccc3Cl)c2C1=O was read as CBX7 inh 1.1 and CBX7 inh z-score 0.86.
Cc1ccc(S(=O)(=O)N(CC(O)CN2CCCCC2)c2cccc(C)c2)cc1 (stereo not drawn) was read as CBX7 inh 1.1 and CBX7 inh z-score 0.078.
For O=C(Nc1ccc(Br)cc1)c1cnc2ccccn2c1=O the results were CBX7 inh 1.2 and CBX7 inh z-score 2.1.
`CN(CC(=O)Nc1ccccc1F)S(=O)(=O)c1ccc2c(c1)n(C)c(=O)c(=O)n2C` gave CBX7 inh 1.3 and CBX7 inh z-score 2.5.
For COc1ccc(C2=NN(CC(=O)NCc3ccc(C)cc3)C(=O)CC2)cc1 the results were CBX7 inh 1 and CBX7 inh z-score 0.17.
`CCOc1ccc2nc(N3CCCC(C(=O)N4CCN(c5cccc(C)c5)C(C)C4)C3)sc2c1` (stereo not drawn) gave CBX7 inh 0.49* and CBX7 inh z-score -14*.
`CC(C)NC(=O)CN1C(=O)COc2ccc(C(C)(C)C)cc21` gave CBX7 inh 0.87 and CBX7 inh z-score -2.6.

Quoted at random: two records from the list
COc1ccc(-c2noc(COc3ccc(Cl)c(C)c3)n2)cc1OC was read as CBX7 inh 0.96 and CBX7 inh z-score -0.25.
O=C(C(Cc1ccccc1)NS(=O)(=O)c1cccc2cccnc12)N1CCc2ccccc21 (stereo not drawn) was read as CBX7 inh 0.83 and CBX7 inh z-score -1.4.

Following part.
O=c1nc(/C=C/c2cn[nH]c2-c2ccc(Cl)cc2)cc(C(F)(F)F)[nH]1 was read as CBX7 inh 1.2 and CBX7 inh z-score 2.2.
Screening CCCCNC(=O)c1cc(=O)n(Cc2ccc(C)cc2)c2ccccc12 returned CBX7 inh 1 and CBX7 inh z-score 0.019.
Screening Cc1ccc2c(c1)NC(=O)C(CC(=O)NCCCN1CCCC1=O)O2 (stereo not drawn) returned CBX7 inh 0.97 and CBX7 inh z-score -0.79.
Screening Clc1ccc(COc2ccccc2-c2nc(-c3ccccc3)c(-c3ccccc3)[nH]2)c(Cl)c1 returned CBX7 inh 0.89 and CBX7 inh z-score -0.75.
For O=C(Nc1ccc2oc(-c3cccc(Cl)c3Cl)nc2c1)c1ccc(Cl)cc1Cl the results were CBX7 inh 1.1 and CBX7 inh z-score 0.87.
O=C(Nc1cnn(Cc2ccc(Cl)cc2Cl)c1)c1cc(-c2ccc(O)cc2)on1 was read as CBX7 inh 1.1 and CBX7 inh z-score 2.5.
Screening COc1cccc(-c2nc(CS(=O)(=O)CC(=O)NCCCN3CCc4ccccc4C3)c(C)o2)c1 returned CBX7 inh 0.82 and CBX7 inh z-score -1.8.
`CC1(C)CC(=O)c2cc(C(=O)Nc3ccccc3Cl)c(=O)n(-c3ccccc3)c2C1` gave CBX7 inh 0.96 and CBX7 inh z-score -1.2.
For COc1cccc(CN2CCC(N3CCN(c4ccccc4OC)CC3)CC2)c1 the results were CBX7 inh 1 and CBX7 inh z-score 0.25.

From PubChem

An excerpt. The share of hits here may be higher or lower than overall.
